Screening data deposited in PubChem by several laboratories.
UUG fidelity: modulators of start codon recognition fidelity in yeast | S. cerevisiae UUG-firefly luciferase reporter, luminescence/redox ratio | activity score, % at 18.7 µM | hit rate 0.13% among 350,000 | AID 602363;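 active = replicate mean at a twofold rise or more, about +100% in these data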;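 also: firefly luciferase made from a UUG start codon reports start codon fidelity; reporter light over untreated wells divided by growth signal over untreated wells; some hits fall short of that in this replicate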
CSC inhib: cancer stem cell inhibition; cancer stem cell-like cells viability, luminescence; inhibition, % at 7.5 µM; hit rate 1.1% among 300,000; AID 2717;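 active = mean at 75% or more and at least half the replicates too; tested in HMLE shEcad cells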;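 also: 0% = median of negative and 100% = median of positive control wells; the first replicate is given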
MT1-MMP act inh: inhibitors of human MT1-MMP activation; hit rate 0.061% among 360,000; AID 651647; GFP/RFP ratio change, % at 20 µM; HT1080 RFP-PRO-GFP cells, GFP/RFP ratio fluorescence, overnight; percent of plate control window, DMSO zero;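 active = GFP/RFP ratio change of at least 30% with cell ATP level not reduced by more than half and red fluorescence within 50% of control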; also: strong numbers were not always called active
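Assay system: HT1080 RFP-PRO-GFP cells. Benchmarks: DMSO vehicle wells and RFP-L50D-GFP reporter cell wells. Times: overnight cell settling, then overnight compound exposure, 37 °C, 5% CO2. Compound: 20 µM single dose, 1% DMSO. Read-out basis: GFP/RFP fluorescence ratio.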
Env fusion inh: blocks HIV Env-driven cell-cell fusion; HeLa-JRFL Env/CEM21 cell fusion, luciferase; inhibition, % at 12.3 µM; hit rate 1.1% among 360,000; AID 651610;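 active = mean replicate inhibition score of at least 50 and every replicate individually at or above 50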;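 also: 0% = plate neutral controls and 100% = maraviroc near 300 nM; one replicate is shown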
Rce1 inhib: blocks yeast Ras-converting enzyme | yeast membranes, quenched prenylated peptide cleavage fluorescence | calls only | hit rate 0.27% among 290,000 | AID 2563;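 active = fall in fluorescence gain of 50% or more versus controls, with final raw signal at or below 3038400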;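 also: plate controls were neutral control wells for no effect and wells lacking membranes for full effect; tested at 10 µM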
Target sequence (Q03530 whole entry, looked up): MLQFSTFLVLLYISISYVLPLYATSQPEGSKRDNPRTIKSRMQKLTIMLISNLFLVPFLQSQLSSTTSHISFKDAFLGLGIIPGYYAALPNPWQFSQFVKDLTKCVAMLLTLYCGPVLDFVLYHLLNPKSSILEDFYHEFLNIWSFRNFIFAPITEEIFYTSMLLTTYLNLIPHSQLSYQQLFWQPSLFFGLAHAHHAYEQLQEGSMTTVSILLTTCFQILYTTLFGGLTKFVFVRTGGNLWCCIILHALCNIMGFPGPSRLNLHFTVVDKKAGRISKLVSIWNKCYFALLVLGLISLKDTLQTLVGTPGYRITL
PABP polyA inh: PABP-poly(A) binding inhibition | inhibition, % at 35 µM | hit rate 1% among 290,000 | PABP-poly(A) RNA binding, fluorescence polarization | P11940;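 active = 50% or more with normal probe brightness, or confirmed in later tests; about a fifth of its hits are not listed in these tables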;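 also: calls also rest on retests at 20 µM and on dose response follow-up; controls were probe without protein and protein plus probe with vehicle; some compounds called inactive have numbers as strong as hits; many hits fall short of the cut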
eIF4H inh: inhibitors of RNA binding by human eIF4H | eIF4H fluorescence polarization binding assay | inhibition, % at 35 µM | Q15056 | hit rate 0.94% among 290,000 | AID 2012;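 active = 50% or more with normal probe brightness, or confirmed in later tests; about a fifth of its hits are not listed in these tables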;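 also: calls also rest on retests at 20 µM and on dose response follow-up; 0% = protein and probe with vehicle and 100% = probe without protein; strong numbers were not always called active; many hits fall short of the cut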
eIF4H inh retest: second read-out of eIF4H inh, no call of its own (marks repeat the call); inhibition, %; compound at 20 µM; confirmation average;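 mean of two retest wells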
PABP polyA inh retest: further read-out of PABP polyA inh, marked with its call; inhibition, %; compound at 20 µM; confirmation repeats;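 mean of two retest wells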
MT1-MMP act inh RFP: further read-out of MT1-MMP act inh, marked with its call; RFP signal change, %; measured here: RFP expression control read;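 0 = vehicle wells; hits needed this value within 50% of zero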
Starred values were filed as active, the others as inactive; i = inactive; · = not tested or not shown; & = joins results of further samples.

SMILES	UUG fidelity	CSC inhib	MT1-MMP act inh	MT1-MMP act inh RFP	Env fusion inh	Rce1 inhib	PABP polyA inh	eIF4H inh	others
O=C(Nc1ccc(F)c(Cl)c1)c1cc(C2CCCN(S(=O)(=O)c3cccs3)C2)on1 (stereo not drawn)	-23	·	2	-5	2	·	·	·
CCc1ccccc1N1CCN(S(=O)(=O)c2cc(OC)ccc2OC)CC1	-4	30	1	4	16	i	-2	6
Cc1cccc(OCc2nnc(-c3ccc(F)cc3)o2)c1	2	-8	5	4	·	·	·	·
CN(C)CCNC(=O)c1ccc(-c2cnn(C)c2)c2ccoc12	-12	·	1	4	-2	·	·	·
Cc1cc(C)n2nc(C(=O)OCC(=O)c3cc(C)n(C)c3C)nc2n1	2	-9	3	4	·	i	44	62*	eIF4H inh retest=81*;PABP polyA inh retest=48
C=C(C)CN1C(=O)C2(OCCO2)c2cc(Br)ccc21	-3	-16	-2	-2	4	i	·	·
O=C(NC1CC2CCCC(C1)N2C(=O)Nc1ccccc1)C1CC1 (stereo not drawn)	-9	-3	5	7	-3	i	2	-4
COCCOC(=O)C1=C(C)N=C2SCCC(=O)N2C1c1ccc(OC(=O)c2ccco2)cc1 (stereo not drawn)	-3	8	1	2	12	i	-3	-8
COC(=O)C1=C(C)NC(C)=C(C(=O)OC)C1C(=O)OCc1nc2cc(C(=O)OC)ccc2c(=O)[nH]1	22	·	0	2	6	i	·	·
CCOc1ccc(C2c3[nH]c4ccccc4c3CCN2C(=O)Cn2cncn2)cc1 (stereo not drawn)	10	18	-41	-31	6	i	8	2
N#Cc1ccc(OC(=O)Cc2ccsc2)cc1	-31	-4	-4	1	-17	i	1	-6
COc1cc(NC(=O)Nc2cccc(Cl)c2)c(OC)cc1NC(=O)CN1CCCCC1	6	115*	3	-6	·	i	4	7
COC(=O)c1sccc1NC(=S)N1CCCC(C)C1 (stereo not drawn)	-27	-6	-4	1	-71	·	3	-2
COc1cc2c(cc1OC)CN(C(=O)c1cc(S(=O)(=O)N3CCOCC3)ccc1C)CC2	·	14	0	-3	-31	i	·	·
O=C(NCc1ccco1)C(=O)NCC1OCCN1S(=O)(=O)c1ccc(F)cc1 (stereo not drawn)	-7	-5	0	2	-7	i	11	20

Looked up one by one from the entries so far, 5 records:
SMILES	UUG fidelity	CSC inhib	MT1-MMP act inh	MT1-MMP act inh RFP	Env fusion inh	Rce1 inhib	PABP polyA inh	eIF4H inh	others
COCCOC(=O)C1=C(C)N=C2SCCC(=O)N2C1c1ccc(OC(=O)c2ccco2)cc1 (stereo not drawn)	-3	8	1	2	12	i	-3	-8
Cc1cc(C)n2nc(C(=O)OCC(=O)c3cc(C)n(C)c3C)nc2n1	2	-9	3	4	·	i	44	62*	eIF4H inh retest=81*;PABP polyA inh retest=48
CCc1ccccc1N1CCN(S(=O)(=O)c2cc(OC)ccc2OC)CC1	-4	30	1	4	16	i	-2	6
COC(=O)C1=C(C)NC(C)=C(C(=O)OC)C1C(=O)OCc1nc2cc(C(=O)OC)ccc2c(=O)[nH]1	22	·	0	2	6	i	·	·
Cc1cccc(OCc2nnc(-c3ccc(F)cc3)o2)c1	2	-8	5	4	·	·	·	·

Other compounds follow:
SMILES	UUG fidelity	CSC inhib	MT1-MMP act inh	MT1-MMP act inh RFP	Env fusion inh	Rce1 inhib	PABP polyA inh	eIF4H inh	others
O=C(/C=C/c1ccccc1)OCN1C(=O)c2ccccc2C1=O	-13	-10	-1	1	5	i	-8	-2
COc1ccc(NC(=S)N2CCC(NC(=O)c3cccc(F)c3)CC2)cc1	-29	3	2	2	-4	i	5	1
O=C(NCc1ccccn1)c1cccc(NS(=O)(=O)c2ccc(Br)cc2)c1	-17	12	3	-2	·	·	·	·
Nn1c(COc2ccc(Cl)cc2)nc2ccccc2c1=O	2	0	-2	0	·	i	6	-6
COc1cccc(-c2cnc(C(O)c3ccccc3OC)[nH]2)c1 (stereo not drawn)	-3	·	-3	-1	16	·	·	·
CCCN(CCC)CCCNC(=O)CC(C(=O)N1CCc2ccccc21)n1ccnc1 (stereo not drawn)	-13	-5	1	3	2	i	-3	-12
Cc1ccc(S(=O)(=O)N2CN(CC3CCCO3)c3nc4ccccc4nc32)cc1 (stereo not drawn)	·	-17	-2	4	3	i	10	9
CCOc1ccccc1C(c1c(O)nc(SC)[nH]c1=O)c1c(O)nc(SC)[nH]c1=O	-1	·	-4	1	-8	i	·	·
CC1CCc2c(sc(NC(=O)c3ccc(Cn4cc(Br)cn4)o3)c2C(N)=O)C1 (stereo not drawn)	·	34	4	1	-26	i	6	3
CN(Cc1ccc(Cl)c(Cl)c1)C(=O)CN1C(=O)NC2(CCCC2)C1=O	-8	-13	-1	1	·	i	·	·
CCCCC(=O)NC(c1ccc(Cl)cc1Cl)c1ccc2cccnc2c1O (stereo not drawn)	-17	109*	0	-11	-66	i	10	10
CC(=O)Nc1ccc(NC(=O)c2ccc(C3SCC(=O)N3CCc3ccccc3)cc2)cc1 (stereo not drawn)	-4	-1	-2	-13	14	i	-4	-6
CCC(=O)N(CC(=O)Nc1sc(C)c(C)c1C(N)=O)Cc1ccc(F)cc1	19	0	-4	-4	21	i	7	-4
CCOc1ccc(Br)cc1S(=O)(=O)Nc1ccc(C(=O)OC(C)C(=O)N(C)c2ccccc2)cc1 (stereo not drawn)	·	13	-8	-13	-18	i	-4	-5
O=C(CS(=O)(=O)c1ccccc1)Nc1nccs1	-20	-5	0	2	0	i	4	6
O=c1[nH]c2ccccc2n1Cc1ccccc1	-3	-10	-1	-3	-20	i	3	6
OC(Cn1nnc2ccccc21)Cn1c(C(F)(F)F)nc2ccccc21 (stereo not drawn)	-8	·	5	-2	·	i	1	-6
COC(=O)C1(O)CC(C(C)C)=NN1C(=O)c1ccc(Cl)cc1 (stereo not drawn)	-17	-4	0	5	-15	i	2	8
COC(=O)CC1C(=O)NCCN1Cc1cn(-c2ccc(C)cc2)nc1-c1cccc(C)c1 (stereo not drawn)	3	-9	-3	-2	-11	i	0	-15
Cc1c(C)c(C)c(S(=O)(=O)N2CCNCC2)c(C)c1C	·	1	-16	-7	-7	i	35	-1
CN1CC(O)(C(O)C(O)C(O)CO)SC1=S (stereo not drawn)	-47	·	-1	-1	-5	·	·	·
COc1ccccc1CNC(=O)Cn1cc2c(n1)CCCC2	-10	-9	3	6	17	i	-10	-13
COc1cccc(CNC(=O)c2ccc(OCC(=O)N3CCOCC3)c(OC)c2)c1	·	2	1	5	2	i	·	·
O=C(c1cccc(F)c1)N1CCN(Cc2ccco2)CC1	·	-13	-2	2	·	i	10	6
COc1cc(OC)cc(C(=O)NC(C(=O)NNC(=O)c2ccc(C)cc2)C(C)C)c1 (stereo not drawn)	-8	·	-5	-1	0	·	·	·
O=c1cc(CNC2CCCCC2)c2ccccc2[nH]1	-36	·	-2	5	-16	i	3	0
CCc1nc(SCC(=O)NC2CC2)c2c(C)c(C)sc2n1	-2	5	1	1	20	i	4	2
O=C(c1ccccc1)N(CCCn1ccnc1)C(c1ccccc1)c1nc2ccccc2[nH]1 (stereo not drawn)	-12	·	-1	0	-34	·	·	·
CC1(C(=O)Nc2cccc(NS(C)(=O)=O)c2)CCN1Cc1ccccc1OC(F)F (stereo not drawn)	-1	·	-2	-1	-97	·	·	·
Cc1nc(Cl)cc(CS(=O)(=O)c2ccc(Cl)cc2)n1	-13	-7	0	3	-5	i	-1	16
O=C(Cc1ccc(NC(=O)C2CCCN(C(=O)CCc3ccccc3)C2)cc1)Nc1ccc(C(=O)N2CCOCC2)cc1 (stereo not drawn)	-1	·	-4	-20	48	·	·	·
Cc1cc(NC(=O)CSCCc2ccncc2)no1	-9	-16	0	1	-12	i	-6	-10
CCOC(=O)Cc1csc(NC(=O)C(C)(C)CC)n1	-16	-13	-3	1	-15	i	0	8
Cc1cc(C)n(C(=O)CNC(=O)c2cccc(Br)c2)n1	-4	1	-2	2	-10	i	0	-10
NS(=O)(=O)c1ccc(S(=O)(=O)NCCc2ccccc2)cc1	-5	-15	3	3	15	i	-3	-9
CCCOc1ccc2oc(=O)c3c(c2c1)CCCN3C(=O)CN1CCCC(C(=O)OCC)C1 (stereo not drawn)	-7	-2	-5	-8	·	i	-5	-18
CCN(CC)CCNS(=O)(=O)c1ccc(/C=C/C(=O)O)cc1	-11	·	-1	5	0	i	-2	-4
CCOc1ccc(NC(=O)N2CCC(C(N)=O)(N3CCCCC3)CC2)cc1	-10	-7	-3	3	7	i	-8	-6
CCN(CC)CCn1c2ccccc2c2n[nH]c(=S)nc21	-3	-14	0	3	-33	i	-10	-7
CSc1ccc(S(=O)(=O)N2c3ccccc3CC2C)cc1 (stereo not drawn)	-4	39	-3	-10	29	i	-4	4
COCCN(Cc1ccccc1)C(=O)c1cccc(S(=O)(=O)N2CCN(c3ccccc3)CC2)c1	10	15	2	-10	5	i	·	·
Cc1ccc(NC(=S)NC(NC(=O)Cc2cccc3ccccc23)C(Cl)(Cl)Cl)cc1 (stereo not drawn)	1	192*	-7	-11	·	i	-5	4
COCCNC(=O)CSc1ccc(Cl)cc1	1	10	1	5	-16	i	1	-2
O=C(CSc1nccc(=O)[nH]1)N1CCOCC1	-10	-5	-2	-2	-16	i	4	-2
CCc1cc[n+](-c2nc3ccccc3nc2C(=C=[N-])C#N)cc1	-6	0	14	6	-37	i	-2	0
CC(C)P(=O)(c1cccc(C(=O)O)c1)C(C)C	-10	-14	4	4	·	i	10	2
CCOc1ccc(CN(C(=O)c2cc3ccccc3oc2=O)C2CC2)cc1	·	-10	1	-3	-19	i	2	-1
COc1ccc(OC)c(CNC(=O)C2CCN(C(=O)N(C)C)CC2)c1	-20	·	2	2	-1	i	8	-4
COc1ccccc1/C=C1\SC(=S)N(CCC(=O)NCCCN2CCOCC2)C1=O	·	-8	·	·	3	i	-8	2
S=c1nc[nH]c2nc[nH]c12	6&-24	84*	23&24	23&22	-230&-51	i	4	0
COc1ccc(Cl)cc1-n1c(=S)sc2c(=O)n(-c3ccc(F)cc3)c(SCC(=O)O)nc21	-16	·	-7	5	2	i	3	-6
COc1ccc(-c2nc(CS(=O)CC(=O)NCc3ccccc3)c(C)o2)cc1OC (stereo not drawn)	-10	2	0	-1	-5	i	-3	3
Cc1ccc(C(=O)Nc2c(C)cc(-c3ccc(Cl)cc3)oc2=O)cc1	-11	14	1	1	·	i	11	1
Cc1onc(-c2ccccc2)c1C(=O)Oc1ccccc1	-20	-10	0	-2	-3	i	5	-10
Cc1csc(NC(=O)C2CSC3(C)CCC(=O)N23)n1 (stereo not drawn)	-15	-19	-7	-3	-4	i	1	-6
Cc1cc(S(=O)(=O)Nc2ccc(C(=O)NCC(c3ccccc3)N(C)C)cc2)ccc1F (stereo not drawn)	-11	-9	1	0	-16	·	-13	3
Cc1cccc(C)c1OCC(O)Cn1ccnc1C (stereo not drawn)	7	4	0	2	33	i	-2	-6
CC(=O)C1=C(O)C(=O)N(c2ccc(Br)cc2)C1c1cccc([N+](=O)[O-])c1 (stereo not drawn)	-16	-13	1	0	-5	i	5	12
COc1cc(/C=C2/OC(=O)c3cc([N+](=O)[O-])ccc32)cc(OC)c1OC	-9	2	10	0	-56	i	·	·
O=C(Nc1cccc(Cl)c1N1CCOCC1)c1cccs1	-2	8	1	2	18	i	-5	-5
O=C(O)CN=C(NS(=O)(=O)c1ccc(Cl)cc1)c1ccc(F)cc1	·	-8	1	2	20	i	2	-2
CCCCNC(=S)N1CCN(CC)CC1	-28	-6	-16	3	1	i	16	-5
Cc1cc(NC(=O)COC(=O)c2ccccc2NCCO)no1	-19	-13	2	3	18	·	·	·

The order is random; overall some 3% were active at least once.
